# Mtb H37Rv = M. tuberculosis H37Rv growth inhibitors, H37Rv strain (AID 1626) | M. tuberculosis H37Rv growth inhibition; higher % means a stronger effect | inhibition, % at 10 µM; hits with a dose series show IC50 in µM | 220,000 compounds, 0.95% hits;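 active means confirmed in a dose series; inconclusive means inhibition above 80% but not taken into the dose series; inactive means below 80% or under 30% at every dose of the series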;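 further: bacteria incubated seven days before Alamar blue readout; 0% = bacteria only wells and 100% = bacteria with antibiotic wells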
# YopH inh = YopH tyrosine phosphatase inhibitors, primary screen, biochemical, fluorescence Ex485/Em525. YopH tyrosine phosphatase [Yersinia enterocolitica]. inhibition, %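 (about 10 µM by stock and volumes)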. 140,000 compounds, 0.16% hits;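 active means inhibition of 50% or more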;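 further: controls were vehicle for no effect and minimum signal wells for full effect; inactives centre near -20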
# Mtb bLac sens = beta-lactam sensitization of Mtb H37Rv, H37Rv | M. tuberculosis H37Rv growth with meropenem, percent inhibition; hits of this screen are not shown here | inhibition, % at 25 µM | 330,000 compounds, 0.27% hits;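 active means about 74% or more and at least 40 points above the plate without the antibiotic, then above 30% in a dose series; inconclusive means first-round hits that could not be retested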;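 further: growth measured after seven days incubation then overnight dye step; 0% = bacteria only wells and 100% = bacteria with antibiotic; twin plates without the antibiotic show which effects depend on it; some results filed as inactive read as strong as hits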
# RecA intein inh = Mtb RecA intein splicing inhibitors, primary screen, biochemical, fluorescence, HTS; AID 2221, 2009; inhibition, %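 (about 9 µM by stock and volumes)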; 290,000 compounds, 0.75% hits; cell-free RecA intein splicing; Protein RecA (Mycobacterium tuberculosis (strain ATCC 25618 / H37Rv)), P9WHJ3; in the data active means inhibition above about 30%; inconclusive means no clear call, values can overlap the other calls;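 further: 0% = vehicle wells and 100% = reference inhibitor control wells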
# Target sequence (P9WHJ3 whole entry, looked up): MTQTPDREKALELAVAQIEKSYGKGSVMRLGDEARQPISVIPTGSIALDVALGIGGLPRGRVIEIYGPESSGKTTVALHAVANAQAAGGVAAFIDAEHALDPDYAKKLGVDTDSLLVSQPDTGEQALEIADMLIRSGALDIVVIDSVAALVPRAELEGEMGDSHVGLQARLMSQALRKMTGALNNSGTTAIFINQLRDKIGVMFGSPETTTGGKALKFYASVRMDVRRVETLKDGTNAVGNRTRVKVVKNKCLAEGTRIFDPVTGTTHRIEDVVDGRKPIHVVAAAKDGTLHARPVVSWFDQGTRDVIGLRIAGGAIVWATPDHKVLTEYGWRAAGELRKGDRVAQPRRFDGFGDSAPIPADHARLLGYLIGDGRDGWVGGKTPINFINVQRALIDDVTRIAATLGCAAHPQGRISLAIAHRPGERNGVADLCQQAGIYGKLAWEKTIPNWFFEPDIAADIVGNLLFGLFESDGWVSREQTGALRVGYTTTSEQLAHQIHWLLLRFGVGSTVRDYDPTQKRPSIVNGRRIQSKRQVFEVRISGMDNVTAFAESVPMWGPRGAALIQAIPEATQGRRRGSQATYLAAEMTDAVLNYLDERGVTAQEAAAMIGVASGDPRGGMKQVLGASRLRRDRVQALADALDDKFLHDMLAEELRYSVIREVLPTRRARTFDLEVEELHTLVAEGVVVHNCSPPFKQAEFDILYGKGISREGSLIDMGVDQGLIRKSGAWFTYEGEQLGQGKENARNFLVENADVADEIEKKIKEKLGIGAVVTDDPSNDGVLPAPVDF
# Arbovirus inh = antivirals against arbovirus infection, primary screen, cell-based, full library, 10K replicate subset; AID 1251, 2008; inhibition, % at 10 µM; arbovirus infection cell-based antiviral screen; 200,000 compounds, 0.37% hits;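 active means inhibition from about 30%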;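 further: bluetongue infection of BSR cells; cell survival read as ATP light after 72 h; 0% = infected wells without compound and 100% = uninfected wells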
# Arbovirus inh repeat = also measured in Arbovirus inh; calls as there; inhibition, %; measured here: 10K subset replicate screen; many hits read low in the repeat;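 first of two repeat runs on a subset; 0% = infected and 100% = uninfected wells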
# Active calls of the source: *; ? = inconclusive; . = not tested or not shown; & = joins results of further samples. Not all compounds are listed; rates above refer to the full screens.
SMILES,Mtb H37Rv,YopH inh,Mtb bLac sens,RecA intein inh,Arbovirus inh,others
Cc1nnc(SCC(=O)N2CCN(c3ccccc3)CC2)n(N)c1=O,1%,.,-2,0.5,4,
Cc1ccccc1CC(=O)NC1CCCCCC1,.,.,2,-4.7,.,
CC1=C(C(=O)Nc2cc(C(=O)N3CCC(C)CC3)ccc2C)SCCO1,.,.,1,-1.9,.,
CCOC(=O)N1CCN(C(=O)c2cn(CC)c3ccc(S(=O)(=O)N4CC(C)CC(C)C4)cc3c2=O)CC1 (stereo not drawn),-6%,.,2,.,13,
O=c1[nH]c2ccsc2c(=O)n1-c1ccc(F)c(Cl)c1,-1%,-2,-4,0.9,4,
CN(CC(=O)N1CCc2ccccc21)S(=O)(=O)c1ccc(Br)s1,-2%,-10,14,1.5,-1,
CC(Cc1cccs1)NC(=O)NC1CCCCC1 (stereo not drawn),-2%,-33,-6,-2.5,-7,
O=C(Nc1ccccc1C(=O)N1CCCCC1)c1ccccc1C(F)(F)F,.,.,-2,-1.0,.,
CCN(C(=O)COc1ncnc2scc(-c3ccc(F)cc3)c12)C1CCS(=O)(=O)C1 (stereo not drawn),1%,-46,-9,-2.2,5,
CC(C)(Cc1nc2ccccc2[nH]1)C(=O)O,1%,-13,-4,-1.3,3,
O=C(NCC(=O)N1CCN(c2ccccc2F)CC1)c1cccs1,.,.,0,0.8,.,
CCN(C(=O)Cn1cc(C(=O)C(=O)N2CCOCC2)c2ccccc21)c1ccccc1,.,.,1,-0.5,.,
CC(/C=C/c1ccccc1)=N/NC(=O)C(O)c1ccccc1 (stereo not drawn),4%,-18,-8,-0.3,-8,
CC(=O)c1cccc(OCC(O)CN2CCN(S(=O)(=O)c3c(F)cccc3F)CC2)c1 (stereo not drawn),.,.,2,-1.6,.,
CCc1ncc(C(=O)c2ccc(OC)cc2)n1C,0%,-29,-6,-0.5,1,Arbovirus inh repeat=1
CC(NC(=O)CC1Sc2ccccc2NC1=O)c1ccccc1 (stereo not drawn),-4%,.,6,-0.3,2,
CC(Sc1ncc(C(F)(F)F)cc1Cl)C(=O)NCC1CCCO1 (stereo not drawn),-6%,.,-6,-1.8,2,
Cc1cc(C(=O)COc2ccc3ccc(=O)oc3c2)c(C)n1C,-5%,.,-3,-2.4,4,
O=C(Nc1ccc2c(c1)CN(Cc1ccco1)CC2)C1CCCO1 (stereo not drawn),.,.,?,4.0,.,
COC(=O)c1nnn(-c2ccc(F)c(Cl)c2)c1C(=O)OC,2%,.,6,-2.1,4,
Nc1ncnc(NC2CCS(=O)(=O)C2)c1[N+](=O)[O-] (stereo not drawn),.,.,3,-1.7,.,
COCCNCCOc1ccccc1-c1ccccc1,7%,-26,16,0.5,13,
COc1ccc(NC(=S)Nc2ccccn2)cc1,8%,.,2,-17,.,
COC(=O)CN(c1ccccc1)S(=O)(=O)c1ccccc1,-15%,-55,-12,0.1,5,Arbovirus inh repeat=1
O=C1OCC/C1=C\OCCCO/C=C1\CCOC1=O,-3%,.,2,5.8,.,
Cc1cc(C)n(-c2ncccc2[N+](=O)[O-])n1,-11%,.,0,.,.,
Cc1ccccc1OCC(=O)NCCNC(=O)c1ccccn1,.,.,1,-3.2,.,
Cc1nc2ccc(S(=O)(=O)NCC(=O)NCc3ccc(Cl)cc3)cc2s1,.,.,-2,0.5,.,
Cc1onc(-c2ccccc2Cl)c1C(=O)N1C=CC(C(F)(F)F)=NCC1,0%,-8,-6,-2.1,1,
O=C(CNc1ccc2ccccc2c1)N/N=C/c1ccc(OC(=O)/C=C/c2ccco2)cc1,?,0,95,2.3,-27,
NC(=O)/C(=N\O)c1ccccc1,-9%,-39,-1,1.0,2,
O=C(c1ccco1)N1CCN(c2ncnc3c2cnn3-c2ccccc2)CC1,-3%,-27,38,1.4,1,
COc1cccc(-n2c(COc3ccc(C)cc3)nnc2SCC(=O)O)c1,-3%,-4,10,-2.1,0,
O=C(CNC(=O)[C@@H]1Cc2ccccc2CN1)NCc1ccco1,.,.,0,-2.3,.,
COc1ccc(Cl)cc1/C=C(\C#N)C(N)=O,-4%,.,2,0.6,-1,
O=C(Nc1ccc2c(c1)OCCO2)c1cc(-c2ccccc2)nc2ccccc12,0%,-34,-1,1.8,-4,
COc1ccc(C)cc1S(=O)(=O)Nc1ccc(F)c(Cl)c1,-2%,-24,-13,3.7,3,
O=C(CC(CC(=O)c1ccc(Br)cc1)c1cccnc1)c1ccc(Br)cc1,0%,.,-2,1.8,.,
Cn1c(=O)[nH]c(=O)c2c1nc(N1CCN(Cc3ccccc3)CC1)n2CCCc1ccccc1,5%,-24,12,-2.6,-14,
O=S(=O)(c1cccc(-c2nnc(SCc3nc4ccccc4s3)o2)c1)N1CCOCC1,.,-22,-11,3.1,0,
O=C(CN(CC1CCCO1)C(=O)CNS(=O)(=O)c1ccccc1)NCc1ccccc1 (stereo not drawn),2%,-31,-8,-1.3,4,
O=C(Nc1nnc(-c2ccc(F)cc2)s1)c1c(F)cccc1Cl,.,.,-3,-2.5,.,
COc1cc2c(cc1/C=C/[N+](=O)[O-])OCO2,.,.,.,1.7,-34,
COc1ccc(C2=NCCn3nc4cc(C(F)(F)F)ccc4c32)cc1,.,.,-7,-1.1,.,
O=C(O)c1cccc(C(=O)Nc2cccc(NC(=O)C3CCCO3)c2)c1 (stereo not drawn),-7%,-33,-11,0.6,-1,
O=C(Nc1ccc2c(c1)Cc1ccccc1-2)c1cc2ccccc2o1,35%,24,56,-0.9,.,
Cn1cnc(NCc2ccccc2)c1[N+](=O)[O-],0%,.,4,4.5,.,
O=c1[nH]nc(-c2ccccc2)c2ccccc12,3%,.,10,1.2,.,
CCOC(=O)C1=C(C)NC(C)=C(C(=O)OCC)C1C(=O)OCC(=O)N1CCC(C)CC1,-6%,-40,6&-6,-1.6,0,
Nc1nc(SCC(=O)N2CCCc3ccccc32)n(-c2ccccc2)n1,-1%,-45,4,2.0,4,Arbovirus inh repeat=0
# Later entries
SMILES,Mtb H37Rv,YopH inh,Mtb bLac sens,RecA intein inh,Arbovirus inh,others
CCOc1ccccc1N=c1oc2cc(O)ccc2cc1C(=O)NCC1CCCO1 (stereo not drawn),-8%,-4,-6,.,11,
COc1ccc(C(=O)CSc2[nH]c(=O)cc(C(F)(F)F)c2C#N)cc1,-3%,.,-1,-2.8,.,
CCOc1ccc(-c2cn3ccccc3n2)cc1,1%,.,0,0.6,1,
O=C(CC1(O)C(=O)Nc2cc(Cl)cc(Cl)c21)c1ccncc1 (stereo not drawn),-6%,-47,-2,-2.1,-11,
Cc1cc(C)c(NC(=O)c2sc3nc(C)[nH]c(=O)c3c2C)c(C)c1,5%,.,1,-1.2,3,
CC(C)(C)NC(=O)C(=O)NNC(=O)c1cccc(Br)c1,65%,.,83,1.1,5,
Cc1ccc(NC2CCCN(C(=O)CCc3cn[nH]c3)C2)cc1C (stereo not drawn),.,.,-14,-2.7,.,
COc1ccccc1-c1cc(-c2ccc(O)cc2)nc(N)c1C#N,.,.,6,6.4,.,
O=C(COc1ccc(Br)cc1)NCCCn1ccnc1,.,.,2,2.6,.,
CSc1nc(O)c(C(c2cccc([N+](=O)[O-])c2)c2c(O)nc(SC)[nH]c2=O)c(=O)[nH]1,-6%,.,6,2.8,8,
CC12C=CC3(O1)C(C(=O)N(c1cccnc1)C3C(=O)NC1CCCCC1)C2C(=O)Nc1ccccc1 (stereo not drawn),-8%,-22,10,-2.9,12,
Cc1cc(C)nc(NS(=O)(=O)c2ccc(N3C(=O)C4CCCCC4C3=O)cc2)n1 (stereo not drawn),.,.,-2,-0.7,.,
CCOc1ccc(S(=O)(=O)NC(C)(C)C)cc1-c1nc2c(C(C)(C)C)nn(C)c2c(=O)[nH]1,5%,-58,-1,-2.2,-8,
Cc1ccc2nc(N(CCN(C)C)C(=O)C3=COCCO3)sc2c1,.,.,-16,0.6,.,
COc1ccccc1CNC(=O)Cn1cccc1C(=O)c1ccccc1,.,.,6,-3.4,.,
CCOC(=O)N1CCN(C(=O)CCl)CC1,5%,.,95,8.1,3,
CC(=O)Oc1ccc(/C(C)=N\N2CCN(Cc3ccc(Cl)cc3)CC2)cc1,.,.,-1,4.3,.,
CCc1nnc(NC(=O)c2nc(S(=O)(=O)Cc3cccc(C)c3)ncc2Cl)s1,.,.,9,75*,.,
CCC(c1nnc(SCC(=O)N2CCOCC2)n1C1CCCCC1)N(C)C (stereo not drawn),.,.,-9,-1.0,.,
NS(=O)(=O)c1ccc(CCNC(=O)CSc2ccc3ccccc3c2)cc1,6%,.,-4,0.6,2,
Cc1ccc(C(=O)Nc2nc3ccccc3n2CCN2CCCC2)cc1,24%,-19,21,0.8,-10,Arbovirus inh repeat=-34
O=C(CCNC(=O)c1ccc(Br)cc1)Nc1cccc(S(=O)(=O)N2CCCCCC2)c1,.,.,-2,-1.1,.,
COc1cc(NC(=O)c2sc3ncn(CC(=O)N4CCCC(C)C4)c(=O)c3c2C)cc(OC)c1OC (stereo not drawn),.,.,1,-3.7,.,
OC(COCc1ccc2c(c1)OCO2)CN1CCCCC1 (stereo not drawn),-1%,.,-7,.,9,
CCc1ccc(C(=O)CSc2nc(N)cc(=O)[nH]2)cc1,.,.,1,0.1,.,
CN(CCOc1ccc(Cl)cc1)CC(O)c1ccccc1 (stereo not drawn),.,.,-1,-2.1,.,
CC(C)CN(C(=O)COC(=O)C1CC1)c1c(N)n(Cc2ccccc2)c(=O)[nH]c1=O,.,.,-4,-0.3,.,
Cc1ccc2nc(-c3ccco3)c(Nc3ccccc3)n2c1,3%,-32,-2,-3.7,10,
N#Cc1ccccc1CN1C(=O)NC2(CCCCCC2)C1=O,.,.,2,-1.6,.,
COCCNc1nnnc2c1sc1nc(N3CCOCC3)c3c(c12)CCCC3,1%,.,.,.,-2,
O=C(O)CCCCCNC(=O)c1ccccc1,5%,1,0,-4.6,11,
Cc1cccc(C(=O)NC(=S)NCc2cccnc2)c1,-6%,-32,0,0.5,5,
CC(C)CC(NC(N)=O)C(=O)NCCc1ccc(Cl)cc1 (stereo not drawn),-6%,.,0,1.4,-4,
COC(=O)C1CCN(Cc2nnc(-c3ccccc3)o2)CC1,.,.,2,-0.3,.,
Cc1ccc(NC(=O)CN(C)C(=O)c2n[nH]c(=O)c3ccccc23)cc1,.,.,-5,-0.4,3,
CCOc1ncccc1C(=O)Nc1ncc(C)s1,2%,.,4,2.2,-5,
O=C(CSC1=NCCN1)NC(c1ccccc1)c1ccccc1,5%,.,-1,.,-9,
O=C(NCc1cccs1)c1ccc(CS(=O)(=O)c2ccc(Cl)cc2)o1,-1%,-23,.,3.6,-1,
CCOCc1nnc(NC(=O)C2c3ccccc3Oc3ccccc32)s1,11%,.,1,-3.9,0,
CCc1ccc(CN2CCCC(C(=O)Nc3ccccc3-c3ccc(OC)cc3)C2)o1 (stereo not drawn),.,.,-1,4.8,.,

# Retrieved by compound from the entries so far, three records:
SMILES,Mtb H37Rv,YopH inh,Mtb bLac sens,RecA intein inh,Arbovirus inh,others
Cc1onc(-c2ccccc2Cl)c1C(=O)N1C=CC(C(F)(F)F)=NCC1,0%,-8,-6,-2.1,1,
COc1cc2c(cc1/C=C/[N+](=O)[O-])OCO2,.,.,.,1.7,-34,
CCOC(=O)N1CCN(C(=O)c2cn(CC)c3ccc(S(=O)(=O)N4CC(C)CC(C)C4)cc3c2=O)CC1 (stereo not drawn),-6%,.,2,.,13,

# Next records follow:
SMILES,Mtb H37Rv,YopH inh,Mtb bLac sens,RecA intein inh,Arbovirus inh,others
O=c1[nH]c(C(Cl)(Cl)Cl)nc2ccc3ccccc3c12,.,.,-8,2.2,.,
CC(=O)c1cccc(NC(=S)N2CCCC2)c1,.,.,-10,-3.0,.,
Cc1cccc(C(=O)NC(NCCc2ccccc2)C(Cl)(Cl)Cl)c1 (stereo not drawn),-1%,-36,9,7.0,-6,
N#Cc1cc2c(=O)n3ccccc3nc2n(-c2ccc(Cl)cc2)c1=O,5%,.,-2,-125,7,
O=S(=O)(c1ccc(Br)cc1)N1CCN=C1SCc1cccc(F)c1,.,.,-8,-0.7,.,
Cc1cc(C(F)(F)F)c2c(n1)sc1c(O)cc(=O)[nH]c12,-3%,-24,5,-4.6,13,
Cc1ccc(S(=O)(=O)N2CCCC2CNC(=O)C(=O)Nc2ccccc2)cc1 (stereo not drawn),.,.,-9,1.2,.,
O=C(N/C(=C/c1ccco1)C(=O)N1CCc2ccccc21)c1ccco1,3%,.,4,1.3,.,
COc1ccccc1C(C)NS(=O)(=O)c1cccs1 (stereo not drawn),.,.,3,1.5,.,
Cc1cc(=O)oc2cc(OCC(=O)NCCc3c[nH]c4ccc(F)cc34)ccc12,.,.,7,-2.5,.,

# Screens: PubChem, several laboratories
